GIV-Gai inh – inhibitors of GIV peptide binding to Galpha-i3, primary screen, biochemical, fluorescence polarization, FITC-GIV GBA peptide, rat Galphai3 | 210,000 compounds, 0.42% hits | 90 min; active compounds read low; scaled: aluminum fluoride 0%, vehicle 100% | AID 1224905, 2016 | percent of control (FP), % (concentration not given with the values) | Guanine nucleotide-binding protein G(i) subunit alpha-3 (Rattus norvegicus), P08753;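 active means replicate mean at 85% of control or lower, very high polarization wells dropped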;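 further: wells of about 15 µL received 100 nL stock; the first replicate is given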
Target sequence (P08753 whole entry, looked up): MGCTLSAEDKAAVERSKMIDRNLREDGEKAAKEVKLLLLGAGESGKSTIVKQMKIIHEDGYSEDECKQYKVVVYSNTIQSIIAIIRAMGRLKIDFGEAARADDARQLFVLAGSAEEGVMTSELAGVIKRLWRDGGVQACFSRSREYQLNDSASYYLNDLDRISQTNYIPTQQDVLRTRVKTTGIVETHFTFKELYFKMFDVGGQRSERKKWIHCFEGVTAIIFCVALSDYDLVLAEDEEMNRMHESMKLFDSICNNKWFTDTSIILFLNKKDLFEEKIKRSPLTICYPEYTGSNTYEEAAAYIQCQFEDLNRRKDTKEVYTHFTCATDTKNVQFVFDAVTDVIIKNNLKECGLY
Starred values were filed as active, the others as inactive.

SMILES	GIV-Gai inh
Cc1ccc([C@@H]2[C@@H](C(=O)c3ccccc3)N3c4ccccc4C=C[C@@H]3C2(C#N)C#N)cc1	121
CC(=O)Nc1ccc2nc(SCC(=O)c3ccc(Br)cc3)sc2c1	109
Cc1cc(-c2cc(S(=O)(=O)NCC(C)c3ccccc3)c(C)s2)n[nH]1 (stereo not given)	100
Cc1ccc(NC(=O)Cn2cnc3sc(C(=O)N4CCC5(CC4)OCCO5)c(C)c3c2=O)cc1Cl	108
Cc1cc(F)ccc1NS(=O)(=O)c1cc(-c2nc(C)c(C)s2)sc1C	99
NS(=O)(=O)c1ccc(CCNC(=O)c2nc(CS(=O)(=O)c3ccc(Cl)cc3)no2)cc1	109
COC(=O)CNC(=O)c1sc2nc(C)nc(N(C)c3ccc(C(C)C)cc3)c2c1C	107
COc1ccc(NC(=O)CCc2c(C)n(C)c3cc(-c4ccccc4OC)nn3c2=O)c(OC)c1	107
Cc1nnc(-c2c(C)[nH]c(C)c2S(=O)(=O)N2CCCC2)o1	105
COc1ccc(C2(CNC(=O)C3(c4ccccc4)CCCC3)CCCC2)cc1OC	114

Looked up above.
Under GIV-Gai inh, Cc1ccc(NC(=O)Cn2cnc3sc(C(=O)N4CCC5(CC4)OCCO5)c(C)c3c2=O)cc1Cl shows 108
Under GIV-Gai inh, CC(=O)Nc1ccc2nc(SCC(=O)c3ccc(Br)cc3)sc2c1 shows 109
Under GIV-Gai inh, COC(=O)CNC(=O)c1sc2nc(C)nc(N(C)c3ccc(C(C)C)cc3)c2c1C shows 107
Under GIV-Gai inh, NS(=O)(=O)c1ccc(CCNC(=O)c2nc(CS(=O)(=O)c3ccc(Cl)cc3)no2)cc1 shows 109
Under GIV-Gai inh, Cc1cc(-c2cc(S(=O)(=O)NCC(C)c3ccccc3)c(C)s2)n[nH]1 (stereo not given) shows 100

Next section
SMILES	GIV-Gai inh
CC12CN3CC(C)(CN(C1)C3c1ccc(F)cc1)C2=O (stereo not given)	119
O=C1Nc2ccccc2Oc2cc(Cl)c(S(=O)(=O)N3CCc4ccccc43)cc21	112
Cn1c2c(c(=O)[nH]c1=O)C(c1ccc(Br)cc1)C1=C(N2)c2ccccc2C1=O (stereo not given)	113
Cc1c(C(=O)N2CCCCCC2)sc2ncnc(N3CCC(C)CC3)c12	108
Cc1ccc(Cl)cc1NS(=O)(=O)c1cc(-c2nc(C)c(C)s2)sc1C	99
O=C(CN1C2=NCCN2c2ccccc21)c1cccs1	112
O=C(CSc1nc(N2CCc3ccccc3C2)nc2ccccc12)NC1CCCC1	106
C=CCn1c(N)c(C(=O)OC)sc1=S	100
Cc1ccc(-c2nc(C3CCN(S(=O)(=O)c4ccc(F)c(C)c4)CC3)no2)cc1	100
CC(C)CN(CC(C)C)C(=O)CSc1nnc2c(n1)[nH]c1ccccc12	110

A different layout for 2 compounds above.
Cn1c2c(c(=O)[nH]c1=O)C(c1ccc(Br)cc1)C1=C(N2)c2ccccc2C1=O (stereo not given)
  GIV-Gai inh: 113

Cc1c(C(=O)N2CCCCCC2)sc2ncnc(N3CCC(C)CC3)c12
  GIV-Gai inh: 108

(continued)
SMILES	GIV-Gai inh
O=c1[nH]c2ccc(S(=O)(=O)NCC3CCCO3)cc2[nH]1 (stereo not given)	100
CCCCCNC(=O)c1c[nH]c2ccc(S(=O)(=O)N(C)c3ccc(Br)cc3)cc2c1=O	110
O=C(NCCC1=CCCCC1)c1ccc(-c2nccc(Oc3ccccc3)n2)cc1	105
O=C(Nc1ccc(N2CCOCC2)cc1)c1cccc(Nc2ncc(-c3cccc(F)c3)cn2)c1	107
N#CC1(C#N)[C@H](c2ccc(Cl)cc2Cl)[C@@H](C(=O)c2ccccc2)N2c3ccccc3C=C[C@@H]21	108
Clc1ccc(-c2cn3nc4c(nc3n2)CCCC4)cc1	116
O=C(CCC(=O)N1Cc2cccn2-c2ccccc21)N1CCN(c2ccc(F)cc2)CC1	101
CCc1onc(C)c1C1CCCN1Cc1ccc(O)cc1 (stereo not given)	106
CCN(CC)c1ccc(C(=O)NCc2nc3cccnc3n2Cc2ccccc2)cc1	139
CCc1cc(-c2csc(S(=O)(=O)N3CCN(c4ncccn4)CC3)c2)on1	100

Another view of three compounds above:
> O=C(Nc1ccc(N2CCOCC2)cc1)c1cccc(Nc2ncc(-c3cccc(F)c3)cn2)c1
- GIV-Gai inh: 107
> N#CC1(C#N)[C@H](c2ccc(Cl)cc2Cl)[C@@H](C(=O)c2ccccc2)N2c3ccccc3C=C[C@@H]21
- GIV-Gai inh: 108
> Clc1ccc(-c2cn3nc4c(nc3n2)CCCC4)cc1
- GIV-Gai inh: 116

Next records:
SMILES	GIV-Gai inh
Cc1ccc(S(=O)(=O)c2cnc(N3CCN(c4ccccn4)CC3)nc2N)cc1C	102
COc1cccc(C(=O)N2CSC[C@@H]2C(=O)NCc2csc(-c3ccccc3)n2)c1	103
Cc1cc(N2CCN(C(=O)C3CCC3)CC2)nc2nnc(C)n12	104
CCOC(=O)C1=c2s/c(=C/c3ccc(Cl)cc3)c(=O)n2C(N)=C(C#N)C1c1ccc(Cl)cc1 (stereo not given)	101
CCOc1cc(C2Nc3ccc(C)cc3[C@H]3OCC[C@@H]23)ccc1OC (stereo not given in full)	98
O=C(NCCCN1CCOCC1)c1ccc2c(=O)n(-c3ccc(F)cc3)c(SCc3cccc(F)c3)nc2c1	112
COCCn1cnc2sc(C(=O)NC3CCCCC3)c(C)c2c1=O	110
Clc1ccc(CSc2nnc(-c3ccccc3)c(-c3ccccc3)n2)cc1	114
COc1ccc(-c2nn(C3CC(=O)C4OCC3O4)c(=S)n2C)cc1OC (stereo not given)	106
Cc1cc2c(cc1C)C(c1cccc(Cl)c1Cl)CC(=O)N2 (stereo not given)	113
COc1ccc(C(O)(C(=O)NN(C(=O)c2ccccc2)c2ccccc2C)c2ccc(OC)cc2)cc1	107
O=C(Nc1ccc2c(c1)CCC2)N1CCN(Cc2nc3cccnc3n2-c2cccc(F)c2)CC1	106
Cc1csc(-c2cc(S(=O)(=O)N3CCCC3)cn2CC(=O)N2CCCCC2)n1	100
CCOC(=O)CN1C(c2ccc(Cl)cc2)=Nc2ccc(Br)cc2C1c1ccccc1 (stereo not given)	112
Cc1csc(-c2cc(S(=O)(=O)Nc3ccc(Cl)cc3C)c(C)s2)n1	179
CC(C)Cc1ccc(S(=O)(=O)N2CCc3c(c(COCc4ccccc4)nn3C)C2)cc1	102
Cc1ccc(-n2nc(C(=O)Nc3nccs3)c3ncn(C)c(=O)c32)cc1	105
CCCCCCc1nc2ccccc2c(=O)n1NC(=O)c1c(O)c2cccc3c2n(c1=O)CC3	107
O=C(NCCCN1CCN(C2CCCCC2)CC1)c1csc(-c2ccncc2)n1	103
Cn1c(=O)c(N2CCC(NC(=O)NCC3CCCO3)CC2)nc2ccccc21 (stereo not given)	111

Going on with the list.
smiles,GIV-Gai inh
CCC(C)(c1nnnn1-c1c(C)cccc1C)N1CCOCC1 (stereo not given),101
c1ccc(CNc2cc(-n3ccnc3)ncn2)cc1,103
CNc1nc(Nc2ccc(Cl)cc2)c2cnn(-c3ccccc3)c2n1,103
O=c1nc2n(-c3ccc(Cl)c(Cl)c3)c3ccccc3cc-2c(=O)[nH]1,116
CC(C)N1CCC2(CC1)N=C(c1ccc3c(c1)OCO3)CC(c1ccccc1O)N2 (stereo not given),102
Cn1nc(C(=O)N2CCCC2)c2c1CCN(C(=O)CCC(=O)NCCc1c[nH]c3ccccc13)C2,107
COc1cccc(N2CCN(C(=O)c3cnn4c3NC(c3ccc(OC)c(OC)c3)CC4C(F)(F)F)CC2)c1 (stereo not given),112
Cc1cccc(NC(=O)CCc2nc(CSc3nc4ccccc4s3)no2)c1C,106
CCc1nnc(-c2ccc(S(=O)(=O)NC3CCCC3)o2)o1,108
Cc1noc(C2CN(S(=O)(=O)N(C)C)CC23CCOCC3)n1 (stereo not given),102
O=C(CN1C(=O)/C(=C2\SC(N3CCOCC3)=NC2=O)c2ccccc21)Nc1ccc(F)cc1,105
Clc1ccc(N=c2oc3ccccc3cc2-c2nc3ccccc3s2)cc1,103
COc1ccc(C2SCCN2S(=O)(=O)c2ccc(Cl)c(Cl)c2)cc1OC (stereo not given),103
CCN1CCN(S(=O)(=O)c2cc(-c3nc(C)cs3)n(CC(=O)N3CCOCC3)c2)CC1,102
CCOc1ccc(-n2c(/C=C/c3cccc(OC)c3OC)nc3ccccc3c2=O)cc1,100
Cc1ccc(-c2noc(-c3ccc(=O)n(CC(=O)Nc4ccc5c(c4)OCCO5)c3)n2)cc1,98
CCC1CCCCN1CCCNC(=O)c1ccc(Cn2c(=S)[nH]c3cc(C(=O)OC)ccc3c2=O)cc1 (stereo not given),111
O=C(Cn1cc2c(=O)n(Cc3ccc(F)cc3)cnc2n1)N1CCc2ccccc2C1,98
Cc1cccc(-c2cc(NC(=O)CN3C(=O)c4ccccc4C3=O)n(-c3ccccc3)n2)c1,108
CCNc1nc(C(N)=O)c(NC(=O)c2ccccc2Br)s1,100
Cc1nn(CC(=O)NC2CCN(Cc3ccccc3)CC2)c(=O)c2c(C)n(-c3ccccc3)nc12,107
CC1CCN(c2ncc3c(n2)CCC(C(=O)NCCC(C)N2CCCC2)C3)CC1 (stereo not given),103
Cn1ccc2c(OCC(=O)NC3CCCCC3)cccc2c1=O,99
CCCCn1c(=O)[nH]c2c(C(=O)N3CCCC(C(=O)OCC)C3)snc2c1=O (stereo not given),101
Cc1ccc(NS(=O)(=O)c2c(C)sc(C)c2-c2cc(C(F)(F)F)on2)cc1C,108
Oc1ccc(C2Nc3ccc(Cl)cc3[C@H]3OCCC[C@@H]23)cc1 (stereo not given in full),100
Cc1cccc(-c2cc(N3CCN(C(=O)c4ccc(C)cc4C)CC3)ncn2)c1,105
O=C(CSc1nc2ccccc2n1S(=O)(=O)c1cccs1)NCc1cccs1,113
CCOC(=O)c1c(NC(=O)c2cnn3c2NC(c2ccc(C)cc2)CC3C(F)(F)F)sc2c1CCCC2 (stereo not given),110
COc1ccc(C2/C(=C(\O)c3ccc(F)cc3)C(=O)C(=O)N2CCCN2CCOCC2)cc1OC (stereo not given),104
Cc1cc(-c2csc(S(=O)(=O)N3CCN(c4cccc(C)c4C)CC3)c2)on1,98
O=c1[nH]c(SCc2ccccc2)nc2c1CN(Cc1ccc(F)cc1)CC2,97
O=S(=O)(c1ccc2c(c1)-c1oncc1CO2)N1CCC2(CC1)OCCO2,104
CN1C(=O)C2(CCN(C(=O)NC(C)(C)C)C2)c2ccccc21 (stereo not given),103
CCCN1C(=O)c2ccccc2Sc2cc(NC(=O)c3cnccn3)ccc21,108
CCc1onc(C)c1C1CCCN1C(=O)c1cnn2c(C(F)(F)F)cc(-c3ccccc3)nc12 (stereo not given),97
CN1CCc2c(sc(NC(=O)c3nc4ccccc4s3)c2-c2nc3ccccc3s2)C1,96
O=C(NC1CCCC1)C1c2cccn2CC(=O)N1c1cccc(Cl)c1 (stereo not given),104
CC1(C)SC(=S)N(/N=C/c2ccco2)C1N(O)C(=O)NC1CCCCC1 (stereo not given),117
CC(=O)n1c2c(c3ccccc31)OC(N)=C(C#N)C2c1ccsc1 (stereo not given),115
CCNc1cc(C)nc(Nc2ccc(NC(=O)CC(C)C)cc2)n1,110
COc1ccc(C2=NN(C(=O)CSc3nnc(CNC(=O)c4cccc(C)c4)n3C)C(c3ccc(OC)cc3)C2)cc1 (stereo not given),108
O=c1c2cc(-c3ccc(F)cc3)nn2cnn1Cc1nc(-c2ccc(Br)cc2)no1,102
Cc1cc(N2CCN(C)CC2)nc(N2CCN(S(=O)(=O)c3cc(C)c(C)cc3C)CC2)n1,104
COc1ccc([N+](=O)[O-])cc1C1N(c2cccc(C)c2)CCN1c1cccc(C)c1,109
Cc1nc(N2CCN(c3ccccn3)CC2)c2c(C)c(C(=O)Nc3ccccc3F)sc2n1,101
CSC1=NC(=Nc2cccc(C)c2)C2(CCCCC2)N1c1ccccc1C,114
CCC(CC)C(=O)NCc1nc2cccnc2n1CCOC,100
O=C(c1ccc2c(=O)n(Cc3ccc4c(c3)OCO4)c(=S)[nH]c2c1)N1CCN(c2cccc(Cl)c2)CC1,126
Cc1ccc(Cl)cc1N1C(=O)C2C3c4ccccc4C(C)(c4ccccc43)C2C1=O (stereo not given),113

The list continues:
smiles,GIV-Gai inh
Cc1cc(C2CCCN2C(=O)c2cc(-c3ccco3)on2)on1 (stereo not given),102
CCC(=O)Nc1sc2c(c1C(=O)Nc1ccc(Cl)cc1)CCC2,112
O=C(NCCc1ccccc1)c1cccc(Oc2cc(-c3ccccc3)ncn2)c1,100
Cc1noc(C)c1C1CCCN1C(=O)c1cc(C(C)C)on1 (stereo not given),103
CCCOc1ccc(C2C(C(=O)OC)=CN(Cc3ccc(OC)c(OC)c3)C=C2C(=O)OC)cc1OC,124
COc1ccc(C(NC(=O)COc2ccccc2)c2cc(Cl)c3cccnc3c2O)cc1OC (stereo not given),102
CCc1ccc(C(=O)NC(Cc2c[nH]c3ccccc23)C(=O)OCC(=O)c2ccccc2)cc1 (stereo not given),85*
COc1ccc(NC(=O)C2CCN(c3cc(C)nc4cc(-c5ccc(C)cc5)nn34)CC2)cc1,106
COc1ccc(C2(c3ccccc3F)C=Cc3c(ccc4ccccc34)O2)cc1 (stereo not given),107
Cc1cc(Sc2ccc(NC(=O)Nc3ccc(F)cc3)cc2)n2ncnc2n1,104
Cc1cccn2c(=O)c(/C=C3\SC(=S)N(CC4CCCO4)C3=O)c(NCc3ccccc3)nc12 (stereo not given),191
CCOc1ccc(-c2noc(CSc3nccn3-c3ccccc3)n2)cc1,104
Clc1cccc(-c2nnc(-c3nc(N4CCCC4)c4ccccc4n3)o2)c1,111
O=C(N1CCOCC1)C1(c2ccccc2)CCOCC1,123
O=C(CCCn1c(SCC(=O)NCCC2=CCCCC2)nc2ccccc2c1=O)NCCCN1CCOCC1,113
COc1cc(OC)cc(C(=O)N2c3ccccc3N3C(c4c(C)c(Cl)c(C)c(Cl)c4C)=NON23)c1,106

From PubChem

An excerpt; the hit share may differ from the screen's.
